Screening data from PubChem.
Nrf2 activator – activators of Nrf2 (ARE) signaling | AREc32 ARE-luciferase reporter (MCF7-derived line), luminescence, 24 h | Potency, µM (titrated, usually from 46.1 µM), without a hit: at the top dose activation, hits mostly activators | 410,000 tested, 0.31% active | AID 624171; note: % of control where 0% means no effect; nearly all actives have a fitted effect of over 65% in size
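ARE activation measured as luciferase luminescence (Steady-Glo, 30 min RT) in AREc32_Fluc cells after 24 hr compound exposure at 37 deg C, 5% CO2; cells seeded overnight at 1000/well in OPTI-MEM, 5% FBS.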
ATXN2 expr inh – reduces ATXN2 reporter expression in HEK-293 cells; HEK-293 ATXN2-luciferase reporter, luminescence, 24 h; 360,000 tested, 0.72% active; Potency, µM (highest dose often 57 µM), for the others: at the top dose activity change, negative = inhibition, usual class: inhibitors; AID 1745845; note: % is set by controls: 0 for no effect and ±100 for the full control effect; nearly all actives have a fitted effect of over 55% in size
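ATXN2-luciferase reporter cells (luciferase flanked by upstream and downstream ATXN2 gene portions) were treated 24 h at 37 °C with compounds at up to 57 uM. SteadyGlo luminescence gave expression; GF-AFC fluorescence gave viability.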
MCF10A rereplic – DNA re-replication induction in MCF 10a cells | MCF 10A DNA re-replication, Hoechst nuclear intensity, 48 h | Potency, µM (titrated, usually from 46.1 µM), for the others: top-dose activity, positive = re-replication, actives largely listed as activators | 350,000 tested, 2.9% active; note: % of control where 0% means no effect; nearly all actives have a fitted effect of over 50% in size
Nrf2 inh – blocks Nrf2 signaling; A549 ARE-Fluc reporter, luciferase luminescence, 18-24 h; Potency, µM (series often up to 46 µM), without a hit: top-dose activity change, negative = inhibition, most hits filed as inhibitors; 360,000 tested, 2.1% active; AID 504444; note: % is set by controls: 0 for no effect and ±100 for the full control effect; nearly all actives have a fitted effect of over 60% in size
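In this cell-based qHTS, ARE-driven firefly luciferase in A549 cells reports Nrf2 activity; the luminescent signal after BugLite lysis is the measured value, with a prior CellTiter-Fluor read for cell health.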
ATXN viability – cell viability loss in ATXN counter-screen; S2 cells (HEK-293 line with an ATXN2-luciferase reporter) viability, CellTiter-Fluor protease fluorescence, 24 h; Potency, µM (doses to about 56.7 µM), hits mostly cytotoxic; 400,000 tested, 0.49% active; AID 651635; note: nearly all actives have a fitted effect of over 40% in size
The depositor's hits bear a star; i = inactive; ? = inconclusive; . = not tested or not shown; & = joins results of further samples; ! = not active in a repeat; [ ] = remark or other dose. Calls come from the whole dose curve; as a rule, active = well fitted curve in the direction sought with a large enough effect; inconclusive = small, poorly fitted or top-dose-only effect, or another doubt; inactive = no such curve, though single readings can be large; an effect the other way counts as inactive or inconclusive. Potency is the fitted concentration of half-maximal effect. An excerpt; count on the stated rates, not on these rows.

A first look, four compounds:
Short keys: A = Nrf2 activator; B = ATXN2 expr inh; C = MCF10A rereplic; D = Nrf2 inh; E = ATXN viability
(1) CCc1ccc(CNC(=O)C2CCN(c3nnc(C)c4c(C)n(-c5ccc(C)cc5)nc34)CC2)cc1
  A: 8.4%&16%; B: 32µM*!; C: 7.3µM*; D: ?; E: ?

(2) O=C(O)Cn1nc(C(F)(F)F)c2c1CCCCC2
  A: -0.5%; B: 10%; C: -4%; D: 6%; E: i

(3) Cc1ccc2c(CC(=O)N3CCN(S(=O)(=O)c4ccc5c(c4)OCCO5)CC3)coc2c1
  A: -0.1%; B: -16%; C: 5%; D: -18%; E: i

(4) O=C(CSc1ncnc2ccccc12)NCc1ccc2c(c1)OCO2
  A: 1.4%; B: -16%; C: -4%; D: -13%; E: i

The listing (from the top)
Short keys: A = Nrf2 activator; B = ATXN2 expr inh; C = MCF10A rereplic; D = Nrf2 inh; E = ATXN viability
(1) CCc1ccc(CNC(=O)C2CCN(c3nnc(C)c4c(C)n(-c5ccc(C)cc5)nc34)CC2)cc1
  A: 8.4%&16%; B: 32µM*!; C: 7.3µM*; D: ?; E: ?

(2) O=C(O)Cn1nc(C(F)(F)F)c2c1CCCCC2
  A: -0.5%; B: 10%; C: -4%; D: 6%; E: i

(3) Cc1ccc2c(CC(=O)N3CCN(S(=O)(=O)c4ccc5c(c4)OCCO5)CC3)coc2c1
  A: -0.1%; B: -16%; C: 5%; D: -18%; E: i

(4) O=C(CSc1ncnc2ccccc12)NCc1ccc2c(c1)OCO2
  A: 1.4%; B: -16%; C: -4%; D: -13%; E: i

(5) O=C(c1ccc(NC(=S)Nc2ccc(Cl)c(Cl)c2)cc1)N1CCCC1
  A: -0.4%; B: -25%; C: 7%; D: ?; E: i

(6) O=C1NC[C@@H](c2ccccc2)OC(=O)[C@H](Cc2ccc(F)cc2)CC/C=C/C[C@H]1CC(=O)N(CCO)Cc1ccccc1
  A: -0.9%; B: ?; C: 18µM*; D: -7%; E: ?

(7) O=C1NC[C@@H](c2ccccc2)OC(=O)[C@@H](Cc2ccc(F)cc2)CC/C=C/C[C@H]1CC(=O)N(CCO)Cc1ccccc1
  A: -1.5%; B: ?; C: ?; D: ?; E: .

(8) CN1CC[C@H](c2c(O)cc(O)c3c(=O)cc(-c4ccccc4Cl)oc23)[C@H](O)C1
  A: .; B: 32µM*; C: .; D: .; E: ?

(9) O=C1NC[C@H](c2ccccc2)OC(=O)[C@H](Cc2ccc(F)cc2)CC/C=C/C[C@@H]1CC(=O)N(CCO)Cc1ccccc1
  A: -2.6%; B: -8%; C: ?; D: ?; E: ?

(10) COc1ccc(/C(N)=N/OC(=O)CSc2ccccc2)cc1
  A: 0.8%; B: 72%[activator]; C: 29%; D: ?; E: i

Part of the list above, reduced to ATXN2 expr inh and MCF10A rereplic:
| item | SMILES | ATXN2 expr inh | MCF10A rereplic |
| --- | --- | --- | --- |
| 3 | Cc1ccc2c(CC(=O)N3CCN(S(=O)(=O)c4ccc5c(c4)OCCO5)CC3)coc2c1 | -16% | 5% |
| 1 | CCc1ccc(CNC(=O)C2CCN(c3nnc(C)c4c(C)n(-c5ccc(C)cc5)nc34)CC2)cc1 | 32µM*! | 7.3µM* |
